# PKD1 kinase inh – inhibitors of human PKD1 kinase, biochemical, fluorescence polarization. PKD1 kinase fluorescence polarization assay. inhibition, %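 (about 10 µM by stock and volumes)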. 200,000 compounds, 0.056% hits;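 active = inhibition of 50% or more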;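 also: controls were vehicle for no effect and a reference inhibitor for full effect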
# RGS16-Gao – modulators of RGS16 binding to Galphao, primary screen, biochemical, human proteins, multiplexed bead flow cytometry. 220,000 compounds, 0.38% hits. AID 1441, 2008. binding response (% of control), % at 10 µM. bead-based flow cytometry RGS16-Galphao binding, fluorescence; actives lie on both sides;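 active = below 25% or above 175%, edge rows of some plates excepted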;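 also: Galphao activated by GDP with aluminum fluoride before binding; 100% = wells without compound and 0% = beads without RGS; some results beyond the cut were filed as inactive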
# Target sequence (O15492 whole entry, looked up): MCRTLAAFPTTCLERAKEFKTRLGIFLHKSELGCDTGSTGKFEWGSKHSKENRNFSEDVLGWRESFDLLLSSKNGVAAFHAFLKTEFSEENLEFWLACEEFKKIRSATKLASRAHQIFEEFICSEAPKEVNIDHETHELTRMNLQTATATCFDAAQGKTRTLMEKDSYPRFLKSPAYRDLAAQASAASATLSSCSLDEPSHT
# Target sequence (P09471 whole entry, looked up): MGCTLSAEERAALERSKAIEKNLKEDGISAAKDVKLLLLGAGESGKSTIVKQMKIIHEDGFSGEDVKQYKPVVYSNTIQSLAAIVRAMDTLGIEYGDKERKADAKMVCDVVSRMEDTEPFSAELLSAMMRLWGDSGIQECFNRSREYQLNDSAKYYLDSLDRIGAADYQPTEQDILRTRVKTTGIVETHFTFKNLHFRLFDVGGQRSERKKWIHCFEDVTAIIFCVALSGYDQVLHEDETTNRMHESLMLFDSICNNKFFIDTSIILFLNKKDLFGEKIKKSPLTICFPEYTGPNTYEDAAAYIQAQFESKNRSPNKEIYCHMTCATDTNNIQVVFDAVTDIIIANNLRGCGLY
# Insulin prom inh – inhibitors of insulin promoter-driven GFP, primary screen, imaging, TRM-6 cells (human fetal islet line), eGFP reporter, cell count | inhibition, % at 2 µM | 130,000 compounds, 0.9% hits | reporter expression induced with tamoxifen | AID 1273, 2008;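 active = inhibition above the mean plus 3 SD, with well images judged a real hit on visual review, cut at about 60% in these data, passing the limit was not always enough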
# GALR2 agonist – GALR2 receptor agonists, primary screen, cell-based. AID 803, 2007. GALR2-expressing cells, agonist activation read-out. Galanin receptor type 2 (Homo sapiens), O43603. 140,000 compounds, 0.48% hits. activation, %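 (tested at 5 µM)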;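 active = above mean plus 3 SD of all compounds, about 5% in these data, not always enough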;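 also: 0% = vehicle buffer wells and 100% = reference agonist at full effect; tested in CHO reporter cells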
# Target sequence (O43603 whole entry, looked up): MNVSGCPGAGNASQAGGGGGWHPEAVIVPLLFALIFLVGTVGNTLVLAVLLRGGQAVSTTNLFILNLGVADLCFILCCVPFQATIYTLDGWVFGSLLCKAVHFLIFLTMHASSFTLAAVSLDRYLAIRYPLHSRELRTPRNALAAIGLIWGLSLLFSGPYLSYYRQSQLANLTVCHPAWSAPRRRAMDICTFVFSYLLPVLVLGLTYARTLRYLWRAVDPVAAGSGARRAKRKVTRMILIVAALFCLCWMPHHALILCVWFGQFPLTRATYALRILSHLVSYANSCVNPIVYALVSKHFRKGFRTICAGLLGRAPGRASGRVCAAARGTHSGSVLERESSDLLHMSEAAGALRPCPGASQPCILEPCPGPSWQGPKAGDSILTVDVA
# HSV replic up – enhancers of HSV replication in host cells, fold increase, host cell viability; HSV replication augmentation in cells; maximum fold increase; 220,000 compounds, 0.005% hits; AID 1956, 2009;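 active = peak rise of 1.5-fold or more in the series; tested in PC3 cells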;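 also: first round at 10 µM; read as green reporter fluorescence; hits show the peak of a series up to 25 µM; 1 = signal of infected wells without compound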
# Insulin prom inh cell count – second read-out of Insulin prom inh, no call of its own (marks repeat the call); normalized cell count, %; measured here: cell count, toxicity; reference of the scale not given here;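 cells exposed to compound for 48 h; stained nuclei by imaging scaled within each plate; lower means fewer cells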
# HSV replic up primary fold – also measured in HSV replic up; calls as there; fold increase; compound at 10 µM; measured here: primary screen fold increase 10 uM; tested in PC3 cells;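 GFP signal in the first replicate; 1 = infected wells without compound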
# The depositor's hits bear a star; i = inactive; / = not tested or not shown. An unsorted share of the library. About 1.3% of those tested had a hit in this group.
SMILES,PKD1 kinase inh,RGS16-Gao,Insulin prom inh,Insulin prom inh cell count,GALR2 agonist,HSV replic up,HSV replic up primary fold
CC1(C)CC(NC(=S)Nc2ccc([N+](=O)[O-])cc2)CC(C)(C)N1,-6,100,/,/,/,i,0.81
COc1ccc(-c2csc(N(Cc3ccco3)C(=O)c3cccs3)n2)cc1,/,97,/,/,/,i,1.1
CCC(=O)Nc1ccc(C(=O)N/N=C/c2ccccc2[N+](=O)[O-])cc1,-12,102,-18,95,-1.6,i,0.97
CCCN1Cc2cccc(C(=O)NCc3cccs3)c2C1=O,-4,66,65,130,0.5,/,/
COc1ccc(C(=O)N2CC3(C)CC2CC(C)(C)C3)cc1OC (centres undefined),-5,108,-12,110,-2.4,i,1.1
Cc1cc(NC(=O)c2ccc(Cl)cc2)c(C(C)C)cc1O,10,131,-14,185,-2.1,i,1
CCCc1cc(=O)[nH]c(SCc2ccc(F)cc2)n1,/,99,/,/,/,i,0.96
O=C(Nc1ccc(C(=O)N2CCOCC2)cc1)Nc1cccc2ccccc12,7,99,-67,92,/,i,1
CN(/N=C/c1ccc(Br)o1)C1=NS(=O)(=O)c2ccccc21,-2,84,-27,110,/,i,1
Cc1nn(CCc2nn[nH]n2)c2nc(-c3ccccc3)cc(C(F)(F)F)c12,-10,99,/,/,/,i,1.1
O=C(COC(=O)c1ccccc1O)NCCC1=CCCCC1,7,107,/,/,/,i,1
CCC(C)NC(=O)/C=C/c1ccc(S(=O)(=O)NCc2ccco2)cc1 (centres undefined),7,98,-50,152,/,i,1.1
CCN(Cc1ccccc1)C(=O)Cn1c(C(C)O)nc2ccccc21 (centres undefined),2,99,/,/,/,i,0.81
Cc1ccc(OCC(=O)Nc2ccccc2[N+](=O)[O-])c(Br)c1,-7,99,-31,130,/,i,0.92
O=C(Nc1ccc2oc(-c3ccncc3)nc2c1)c1ccc2c(c1)OCCO2,/,99,/,/,/,i,0.82
Cc1ccc(CC(=O)OCC(=O)NC2CCCC(C)C2C)cc1C (centres undefined),-7,90,-42,210,0.2,i,0.79
CCOC(=O)C1(CCCc2ccccc2)CCN(C(=O)C2CCCN(C(N)=O)C2)CC1 (centres undefined),-8,93,/,/,/,i,0.9
CC(C)OC(=O)c1cccnc1SCC(=O)N(C)c1ccccc1,-5,108,-19,154,-0.9,i,0.82
Cc1nccc(-c2ccc(-n3cnc4ccccc43)cc2)n1,7,115,/,/,-0.4,i,0.76
Cc1ccccc1-c1nc2ccccc2[nH]1,-5,86,42,126,-1.6,i,1
CCCCn1c(CNC(=O)Cc2ccccc2)nc2ccccc21,31,100,/,/,-2.2,i,0.93
Clc1ccc(OC2CCN(Cc3nc(CC4CC4)no3)CC2)cc1,-2,109,/,/,/,i,1
CC(=O)N=c1sc2cc(C)ccc2n1C,-6,106,/,/,-0.7,i,0.76
Cc1ccccc1Oc1ccccc1N,7,107,-30,115,/,i,1
Cc1cc(C)cc(-c2nnc(SCc3ccc(C(=O)O)cc3)o2)c1,6,111,/,/,/,i,1
# (listing goes on)
SMILES,PKD1 kinase inh,RGS16-Gao,Insulin prom inh,Insulin prom inh cell count,GALR2 agonist,HSV replic up,HSV replic up primary fold
COC1CCN(C(=O)CC2C(=O)NCCN2CC(C)(C)C)CC1 (centres undefined),4,5.7*,/,/,/,i,0.89
Cc1cc(C(=O)N2CCC(C)CC2)on1,/,103,/,/,/,i,0.96
CCC(=O)n1nc(-c2ccc(Cl)cc2)nc1SC,-7,49,66,122,1.2,/,/
COC(=O)c1cscc1NC(C)=O,5,94,75*,86*,-1.2,i,1.1
COc1ccc(/C=C/C(=O)Nc2cc(C)nn2-c2nc3ccccc3n2Cc2cccc([N+](=O)[O-])c2)cc1,-8,59,-19,88,0.2,i,1
Cc1cccc(NS(=O)(=O)c2ccc3[nH]c(=O)cc(C(=O)OC(C)C(=O)Nc4ccc([N+](=O)[O-])cc4)c3c2)c1 (centres undefined),3,98,/,/,/,i,0.87
COc1ccccc1N/C(=N/S(=O)(=O)c1ccc(Cl)cc1)c1ccccc1,-9,93,-38,119,-3.1,i,0.94
COc1ccc(-c2nnc(SCC(=O)Nc3ccc4c(c3)OCCO4)n2N)cc1OC,6,107,-42,157,-0.3,i,0.79
O=C(Cn1nc(C(=O)O)c2ccccc2c1=O)Nc1nc(-c2ccccc2)cs1,/,101,/,/,/,i,0.9
CCOc1ccc(NC(=O)CN2CCN(CC(=O)Nc3ccc(C(=O)OC)cc3)CC2)cc1,-7,100,62,114,-1.0,i,0.99
Cc1cc(Nc2cccc(C)c2C)n2ncnc2n1,-4,103,-10,127,-0.6,/,/
O=C(c1cc2ccccn2n1)N1CCN(c2cccc(C(F)(F)F)c2)CC1,-9,104,-43,129,-0.4,i,1.2
CCCCNC(=O)C1CCN(S(=O)(=O)N2CCOCC2)CC1,3,99,/,/,/,i,1.1
S=C(Nc1ccccc1)N1CCN(C2CCCCC2)CC1,6,94,-4,132,-2.3,i,0.96
Cc1ccc(-c2nn3cnnc3c3ccccc23)cc1,0,102,-24,105,/,i,1.2
CCOc1ccc2nc(NC3=NC(c4ccc(OC)cc4)CC(=O)N3)nc(C)c2c1 (centres undefined),2,102,/,/,7.9,i,1
Cc1nn(CC(=O)Nc2c(C)n(C)n(-c3ccccc3)c2=O)c(C)c1[N+](=O)[O-],7,115,-75,43,/,i,0.99
Cc1ccc(CSCCNC(=O)CSc2ccccc2)cc1,-2,104,10,113,0.5,i,1
Cc1ccc(CCNC(=O)C2CCN(S(=O)(=O)N3CCCC3)CC2)cc1,-11,99,-9,89,-1.9,i,1.1
CCn1cc(C2=NC(c3ccccc3)CO2)c2ccccc21 (centres undefined),-5,102,25,106,0.1,i,0.93
S=C(Nc1ccccc1)N1CCn2c1nc1ccccc12,3,100,35,66,0.2,i,0.79
O=C(CSc1nc(-c2ccc(F)cc2)nc2c1Cc1ccccc1O2)Nc1ccc(C(=O)O)cc1,9,102,/,/,/,i,1
O=C(Nc1ccc(F)c(F)c1)c1oc2ccccc2c1NC(=O)C1CCCO1 (centres undefined),1,112,0,92,/,i,0.94
CCOC(=O)c1nnn(-c2nonc2N)c1CN1CCc2ccccc2C1,-3,98,46,104,-4.4,i,0.73
CC1CCN(C(=O)c2ccc(NS(C)(=O)=O)cc2)CC1,-3,/,10,131,-0.2,i,0.69
# (more compounds)
SMILES,PKD1 kinase inh,RGS16-Gao,Insulin prom inh,Insulin prom inh cell count,GALR2 agonist,HSV replic up,HSV replic up primary fold
CC(C)(C)C1CCc2[nH]c3ccccc3c(=O)c2C1 (centres undefined),3,92,-5,96,-0.9,i,0.87
CCOC(=O)C1(Cc2ccc(OC)cc2)CCN(C(=O)C2=CCCC2)CC1,-3,105,/,/,/,i,1
N#CCCN1CCNCC1,-4,102,68*,113*,-0.4,i,0.91
NC(=O)[C@H]1CC2(CC(c3cccc(NC(=O)COc4ccc(Cl)cc4)c3)=NO2)CN1C(=O)CC(c1ccccc1)c1ccccc1 (some centres undefined),/,104,/,/,/,i,0.86
O=C1CC(C(=O)Nc2ccccc2)S/C(=N\N=C\c2ccco2)N1 (centres undefined),-8,103,26,81,-2.0,i,1
COCCNC(=S)N(CCc1c(C)[nH]c2ccc(C)cc12)Cc1ccco1,1,91,/,/,/,i,1
CC1CCCC(NC(=O)c2ccc3c(=O)n(CC4CCCO4)c(=O)[nH]c3c2)C1C (centres undefined),4,99,/,/,0.4,i,0.96
COc1ccc(/C=C2\Sc3ccc(C(=O)NCc4cccnc4)cc3N(C)C2=O)cc1OC,4,101,18,65,/,i,0.89
CCN(CC)CCCNC(=O)CCC(=O)NNc1nc2ccccc2c2nc(C)nn12,-2,101,-57,122,/,i,1.1
C=CCNC(=S)Nc1ccc(Cl)cc1F,-5,103,0,91,/,i,1.1
COC(=O)c1ccccc1S(=O)(=O)N(Cc1ccco1)Cc1cc2cc(OC)ccc2[nH]c1=O,-4,99,/,/,-0.7,i,0.94
Cc1cc(C(=O)Nc2cccnc2)cs1,-4,101,-18,97,0.3,i,0.93
O=C(N/N=C\c1ccc(Cl)s1)c1ccc(Cn2cccn2)o1,-4,99,-177,126,-0.5,i,0.93
CC(=O)c1ccc(NC(=O)CCNS(=O)(=O)c2cccc3nonc23)cc1,-3,67,24,80,-2.7,i,1
CCn1c(-c2ccc(Cl)cc2)n[nH]c1=S,6,98,14,135,-2.9,i,0.85
CC(O)CNc1nc2ccccc2n1CC(=O)NC12CC3CC(CC(C3)C1)C2 (centres undefined),-1,100,-29,142,/,i,0.88
CCN(CC)C(=O)c1sc(N)c(C#N)c1C,-1,87,64,66,-1.3,i,0.97
CCOc1ccc(S(=O)(=O)N2CCOCC2)cc1[N+](=O)[O-],1,102,/,/,/,i,1
O=C(NCc1ccccc1)C(=O)NCC1OCCN1S(=O)(=O)c1ccc2c(c1)OCCO2 (centres undefined),0,103,27,130,-0.8,i,0.81
Cc1c(NC(=O)C(CC(=O)O)NCc2ccco2)c(=O)n(-c2ccccc2)n1C (centres undefined),-2,103,38,72,-1.8,i,1
C=CCOC(=O)C1=C(C)NC(=O)NC1/C=C/c1ccccc1 (centres undefined),17,104,-14,89,-1.1,i,1.1
Cc1cc(C(=O)N/N=C/c2c(C)nn(-c3ccccc3)c2C)n[nH]1,/,99,/,/,/,i,1.1
O=c1cnnc(Nc2cccc(C(F)(F)F)c2)[nH]1,-6,102,/,/,/,i,1.1
O=C(CSc1nncn1-c1ccccc1)NC1CCCCC1,3,100,-29,112,/,i,0.92
O=C(NN1C(=O)C2C3C=CC(C3)C2C1=O)C(O)c1ccccc1 (centres undefined),-4,96,/,/,/,i,0.94
# Following part.
SMILES,PKD1 kinase inh,RGS16-Gao,Insulin prom inh,Insulin prom inh cell count,GALR2 agonist,HSV replic up,HSV replic up primary fold
Cn1c(SCc2nnc3n2CCCCC3)nc2ccccc21,-6,100,-9,68,-1.8,i,0.86
CC1CCCCN1C(=O)/C(=C\c1ccccc1)c1ccccc1 (centres undefined),-5,100,16,118,1.0,i,0.75
O=c1nc(-c2ccccc2)nc(-c2ccccc2)[nH]1,/,108,/,/,/,i,0.93
CC(C)CC(NC(=O)OC(C)(C)C)C(=O)NC(C(=O)NC(C)C(N)=O)C(C)C (centres undefined),-10,99,-42,115,-2.1,i,1.1
COCCCNC(=O)CN1CCN(Cc2ccc(Cl)cc2)C1=O,-9,130,/,/,-0.3,i,1
CCCCC1CCC(c2nc(-c3cccnc3)no2)CC1 (centres undefined),-17,107,-4,65,-1.7,i,1.1
CC(C)(C)C(=O)Nc1cccc2[nH]ncc12,-3,101,0,121,/,i,1
Cc1ccc(Nc2nc(C(=O)NCc3ccco3)cs2)cc1,-24,92,-73,83,-2.0,i,0.83
COc1ccc(Cl)cc1S(=O)(=O)N1CCN(Cc2ccc3c(c2)OCO3)CC1,-5,98,25,140,0.2,i,0.98
COc1ccc(C(=O)NCC(=O)NCCc2c[nH]c3ccccc23)cc1OC,3,100,/,/,/,i,0.98
COc1ccc2nc(NC(=O)c3cccnc3SC)sc2c1,-4,30,0,49,-0.6,i,1
COc1ccc(/C=N/NC(=O)CCc2nc3ccccc3[nH]2)cc1,9,96,-53,130,-0.5,i,0.97
CCN(CC)Cc1c(O)ccc2c(C)c(CC(=O)OC)c(=O)oc12,-4,95,0,58,0.1,i,1
O=S(=O)(NC1CCCC1)c1ccccc1Cl,-1,105,-33,132,-3.0,i,0.89
